2A StopGo: FMDV 2A StopGo reporter, luciferase signal; Potency, µM (titrated, usually from 57.9 µM), for the others: at the top dose signal change, negative = less light; human cells with a luciferase reporter of 2A StopGo recoding; control for the full effect not named in the record; actives 1.2% (n = 410,000); active = well fitted falling curve with a large enough effect; inconclusive = small, poorly fitted or top-dose-only effect; inactive = no such curve, though single readings can be large or run the other way; tested in HEK293T cells; further: nearly all actives have a fitted effect of over 45% in size; luciferase light after 4 h
RE007 growth inh: less growth of the S. pombe RE007 Vpr strain. Potency, µM (series often up to 92.2 µM), for inactives: at the top dose activity change, negative = less growth. S. pombe RE007 Vpr strain, BacTiter-Glo ATP luminescence, 24 h; control for the full effect not named in the record. actives 0.21% (n = 360,000); active = well fitted falling curve with a large enough effect; inconclusive = small, poorly fitted or top-dose-only effect; inactive = no such curve, though single readings can be large or run the other way;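 further: nearly all actives have a fitted effect of over 50% in size; the assay follows cell death caused by Vpr and the record does not say whether a fall means rescue or toxicity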
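Fission yeast RE007 carrying one integrated HIV-1 vpr copy, seeded at OD 0.01 in PMG+AL medium with 23 nL pinned compound. Grown 24 h at 30 degrees; viability read by BacTiter-Glo luminescence after 5 min.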
The depositor's hits bear a star; ? = inconclusive; [ ] = another dose, or the depositor's remark. On the % scale 0 is the no-effect control and ±100 the full control effect; potency means the concentration at half of the fitted maximal effect. A portion of the library (hit frequency here may not be typical).

SMILES	2A StopGo	RE007 growth inh
C(=C\c1ccccc1)/CN1CCN(C(CCc2ccccc2)c2nnnn2-c2ccc3c(c2)OCCO3)CC1 (stereo not drawn)	-9%	-6%
COc1cc(NC(=O)C2(C)CCCN2C(=O)C(C)C)cc(OC)c1OC (stereo not drawn)	-19%	-2%
C[C@H]1CN([C@@H](C)CO)C(=O)CCCn2nncc2CO[C@H]1CN(C)S(C)(=O)=O	-21%	?
COc1cccc(/C=C/C(=O)OCC(=O)c2ccc[nH]2)c1	51%[activator]	5%
Cc1cc(F)ccc1-c1cc(C(=O)NCc2ccccc2)[nH]n1	25%	-7%
OCC1OC(n2cnc3c(NCCc4ccccc4)ncnc32)C(O)C1O (stereo not drawn)	41%[activator]	-6%
CCOc1ccccc1/C=C(\C#N)C(=O)NC1CC1	-20%	5%
CCCCNC(=O)C(NC(=O)c1cccc(C(F)(F)F)c1)C(=O)c1ccccc1 (stereo not drawn)	14%	6%
CC(=O)Nc1ccc(Cl)cc1C(=O)c1ccc[nH]1	-9%	0%
CC[C@H]1C(Nc2ccccc2)C[C@@H]2CCN3C(=O)CC[C@H]1[C@H]23 (stereo partly drawn)	0%	-13%
CCOC(=O)[C@]12CCCC=C1N(Cc1ccccc1)C(=O)[C@H](CC(=O)N1CCCC1)C2	-3%	11%
Cc1cc(C)n(C(N)=NC(=O)c2ccccc2)n1	47%[activator]	-29%
O=C(COC(=O)c1ccc(S(=O)(=O)N2CCCCC2)cc1)NC1CCCCC1	-16%	-3%
Fc1ccc(-c2nc3c4ccccc4ccn3c2CC2CCCCC2)cc1	3%	-5%
CCCCN1CC[C@H]2C=CC[C@@H](C(=O)Nc3ccccc3)[C@H]2C1=O	-15%	3%

Some of the entries so far, as comma-separated lines:
compound,2A StopGo,RE007 growth inh
CCOC(=O)[C@]12CCCC=C1N(Cc1ccccc1)C(=O)[C@H](CC(=O)N1CCCC1)C2,-3%,11%
Cc1cc(C)n(C(N)=NC(=O)c2ccccc2)n1,47%[activator],-29%
O=C(COC(=O)c1ccc(S(=O)(=O)N2CCCCC2)cc1)NC1CCCCC1,-16%,-3%
Fc1ccc(-c2nc3c4ccccc4ccn3c2CC2CCCCC2)cc1,3%,-5%
CCCCN1CC[C@H]2C=CC[C@@H](C(=O)Nc3ccccc3)[C@H]2C1=O,-15%,3%

The list goes on.
SMILES	2A StopGo	RE007 growth inh
O=C(N1CCOCC1)C12OC3CC(CC(C3)O1)O2	0%	-10%
CCOC(=O)[C@]12CCCC=C1N(Cc1ccccc1)C(=O)[C@H](CC(=O)N1CCN(C(=O)c3ccco3)CC1)C2	-19%	?
CC(C)NC(=O)N(C)C[C@H]1OCCCC[C@@H](C)Oc2ccc(NC(=O)C3CCCCC3)cc2C(=O)N([C@H](C)CO)C[C@@H]1C	0%	-2%
CC(=O)C[C@H]1c2cc(C(F)(F)F)ccc2S(=O)(=O)N1c1ccc(N(C)C)cc1	8%	-12%
COC1=C[C@@H]2C3=C([C@@H]2C1=O)[C@@H](NC(C)=O)CCc1cc(OC)c(OC)c(OC)c13	0%	3%
COc1ccc(Cc2c(-c3ccc(C)cc3)nc3ccc(Cl)cn23)c(C)c1	15%	-2%
CCOc1ccc(NC(=O)CN(C)C(=O)C2CC(=O)N(c3cccc(SC)c3)C2)cc1OCC (stereo not drawn)	-10%	-8%
O=[N+]([O-])c1cccc(C2Nc3ccccc3CO2)c1 (stereo not drawn)	-2%	-3%
COc1ccccc1CNC(=O)C1(C)CCN1Cc1ccc2ccccc2c1 (stereo not drawn)	?	-7%
CCC(C)N(C(=O)COC(=O)c1ccc(N)c([N+](=O)[O-])c1)C1CCS(=O)(=O)C1 (stereo not drawn)	-29%	-7%
COC(=O)Cc1ccc(OC2(C)CCN(Cc3csc4ccccc34)C2)cc1 (stereo not drawn)	-14%	-4%
Cc1cnc(NC(=O)C2(C)CCN2C(=O)C(C)C)s1 (stereo not drawn)	8%	29%
COc1ccc(S(=O)(=O)NC(=O)C2(C)CCN2C(=O)COc2ccc(Cl)cc2)cc1OC (stereo not drawn)	4%	3%
O=C(Nc1ccccc1)c1cc(C2CCCCN2S(=O)(=O)Cc2cccc(C(F)(F)F)c2)on1 (stereo not drawn)	-5%	14%
CC1(C)CC(=O)C=C(c2ccc(-c3cccc(C(N)=O)c3)cc2)C1=O	7%	11%
O=C(CC[C@H]1O[C@@H](n2ccc(=O)[nH]c2=O)[C@H](O)[C@@H]1O)N[C@H](Cc1ccccc1)C(=O)NCC1CCCCC1	-15%	2%
CSc1ccc(CN2CCC(C)(Oc3cccc(F)c3)C2)cc1 (stereo not drawn)	-17%	0%
OC[C@H]1O[C@@H](c2nc(-c3ccccc3Br)no2)[C@H](O)[C@@H]1O	-14%	5%[18.4 µM]
O=C1c2ccccc2[C@@H]2Cc3csc[n+]3[C@H]12	-15%	-7%
COc1cc(CNC(=O)Nc2nc(C(N)c3ccccc3)cs2)cc(OC)c1OC (stereo not drawn)	-6%	6%[18.4 µM]
COc1cccc(CNC(=O)c2ccc(F)c(S(=O)(=O)N3CCCCC3)c2)c1	-23%	-12%
O=C(O)/C(=C\c1ccco1)NC(=O)c1ccc(Br)o1	-1%	-4%
COc1cc(OC)c(OC)cc1CNCC1COc2ccccc2O1 (stereo not drawn)	-10%	-8%
CCOC(=O)[C@]12CCCC=C1N(Cc1cccc3ccccc13)C(=O)[C@H](CC(=O)N1CCOCC1)C2	-13%	38%
CCCCC[C@H](C)N1C[C@@H](COCc2ccccc2)Oc2cc(N3CC[C@@H](N(C)C)C3)ccc2S1(=O)=O	-17%	-13%
COc1ncnc2c1ncn2CCCNCc1ccc(C)o1	7%	-15%
Cc1ccc(-c2nc(SC(C)C(=O)NC3CC3)n[nH]2)cc1 (stereo not drawn)	-1%	2%
C#CCOCCOCCOCCNc1nc(N2CCN(C(=O)Cn3cc(CCO)nn3)CC2)nc(N2CCN(C(=O)[C@H]([C@@H](C)CC)n3cc(CCCCN)nn3)CC2)n1	-4%	-12%
O=C(CC1CC2CCC1C2)N1CCN(S(=O)(=O)c2ccc(F)cc2)CC1 (stereo not drawn)	0%	-8%
Cc1cc(Br)cn2c(Cc3ccccc3C(F)(F)F)c(-c3ccc(Cl)cc3)nc12	-23%	-27%

The list goes on; the last 7 above are carried over.
SMILES	2A StopGo	RE007 growth inh
CCOC(=O)[C@]12CCCC=C1N(Cc1cccc3ccccc13)C(=O)[C@H](CC(=O)N1CCOCC1)C2	-13%	38%
CCCCC[C@H](C)N1C[C@@H](COCc2ccccc2)Oc2cc(N3CC[C@@H](N(C)C)C3)ccc2S1(=O)=O	-17%	-13%
COc1ncnc2c1ncn2CCCNCc1ccc(C)o1	7%	-15%
Cc1ccc(-c2nc(SC(C)C(=O)NC3CC3)n[nH]2)cc1 (stereo not drawn)	-1%	2%
C#CCOCCOCCOCCNc1nc(N2CCN(C(=O)Cn3cc(CCO)nn3)CC2)nc(N2CCN(C(=O)[C@H]([C@@H](C)CC)n3cc(CCCCN)nn3)CC2)n1	-4%	-12%
O=C(CC1CC2CCC1C2)N1CCN(S(=O)(=O)c2ccc(F)cc2)CC1 (stereo not drawn)	0%	-8%
Cc1cc(Br)cn2c(Cc3ccccc3C(F)(F)F)c(-c3ccc(Cl)cc3)nc12	-23%	-27%
Cc1ccc(S(=O)(=O)N2[C@@H](c3cccc(Cl)c3)C(C(=O)OC(C)(C)C)=CC[C@H]2c2cccc(Cl)c2)cc1	?	1%
Cc1ccc(S(=O)(=O)NN=Cc2c(O)ccc3ccccc23)cc1	31%[activator]	-12%
Cc1ccc(NC(=O)C(C)OC(=O)c2nc(Cl)ccc2Cl)cc1S(=O)(=O)N1CCOCC1 (stereo not drawn)	1%	-4%
CCc1nc2c(OCc3c(C)noc3C)cccn2c1N(C)C(=O)c1ccccc1F	0%	-4%
CC(C)CCNC(=O)c1[nH]c(C(F)(F)F)nc1-c1ccccc1	-14%	-7%
CCCCN1C(=O)C(CC(=O)NCCN2CCOCC2)CC(C(=O)N2CCOCC2)=C1C (stereo not drawn)	-22%	-5%
CC(C)C(C(=O)NC1CCCC1)N1CCN(c2ncccc2C#N)CC1 (stereo not drawn)	-8%	-3%
CCCC1NC(=O)c2cccnc2-n2c1nc1ccc(OC)cc1c2=O (stereo not drawn)	-20%	-15%
O=C(OCc1ccccc1)N1CCC2CC1c1cc(N3CCN(S(=O)(=O)c4cccc(C(F)(F)F)c4)CC3)ccc12 (stereo not drawn)	-17%	2%
COc1ccccc1C1=NOC(C)(c2nnc(-c3cccc(Cl)c3)o2)C1 (stereo not drawn)	0%	4%
Cc1cc(C)cc(-n2ncc3c2CCCC3NC(=O)c2ccccc2)c1 (stereo not drawn)	?	-19%
COc1ccc([C@H]2/C=C\CN(C(=O)CC(C)(C)C)[C@@H](C)C(=O)N2Cc2ccc(F)cc2)cc1	?	-1%
COc1cc(-c2cc(NC=O)c3ncc(-c4cccc(C(F)(F)F)c4)n3c2)cc(OC)c1OC	?	3%[18.4 µM]
O=C(NCc1ccccc1)C(c1ccc(F)cc1)N1CCN(c2ccccc2F)CC1 (stereo not drawn)	-11%	9%
COc1ccc(CN(C)CCCn2cnc3c(OCc4ccccc4)ncnc32)cc1OC	-17%	-1%
Cc1noc(C)c1S(=O)(=O)Nc1ccc2c(c1)C(=O)N([C@@H](C)CO)C[C@H](C)[C@@H](CN(C)Cc1ccc(C(F)(F)F)cc1)OCCCC[C@H](C)O2	?	22%
CC1(c2nc3ccccc3[nH]2)CCC(=O)N1C1CC1 (stereo not drawn)	-10%	2%
C=C1CCN([C@@H](Cc2ccccc2)C(=O)NCc2ccc(Cl)cc2)S(=O)(=O)c2ccccc21	-5%	0%
c1ccc(N=C2SCCCS2)cc1	0%	3%
CC(C)(C)NC(=O)C(c1cccc2ccccc12)n1c(=O)c(-c2cc3ccccc3[nH]2)nc2ccccc21 (stereo not drawn)	-7%	11%
C[C@@H]1CN([C@H](C)CO)C(=O)c2c(c3ccccc3n2C)-c2ccccc2CO[C@H]1CN(C)Cc1ccc(Oc2ccccc2)cc1	-22%	-24%
CCOC(=O)[C@]12CCC=C1N(CCC1=CCCCC1)C(=O)[C@H](CC(=O)N1CCN(C(=O)c3ccco3)CC1)C2	-16%	-6%
CN(C)C1CN(Cc2cn(Cc3ccc(Cl)cc3)nn2)S(=O)(=O)C1 (stereo not drawn)	-16%	7%
NC(Cc1ccc(Cl)cc1)c1csc(NC(=O)Nc2ccccc2)n1 (stereo not drawn)	-27%	4%
O=C(NC(c1ccc(Cl)cc1)c1cnccn1)C1CCN(Cc2ccc(Oc3ccccc3)cc2)CC1 (stereo not drawn)	-22%	-5%[18.4 µM]
C[C@@H]1CN([C@@H](C)CO)C(=O)CCCn2nncc2CO[C@@H]1CN(C)C(=O)Nc1ccc(C(F)(F)F)cc1	0%	-2%
OCCCNc1ncnc2c1ncn2[C@H]1CN(Cc2ccco2)C[C@@H](CO)O1	-18%	-10%[18.4 µM]
CCOC(=O)C1=CCC2C(=O)N(Cc3ccccc3)C(=O)C12 (stereo not drawn)	-1%	1%
CCOC(=O)[C@]12CCCC=C1N(CCC1=CCCCC1)C(=O)[C@H](CC(=O)N1CCOCC1)C2	-6%	6%
CC1(Cc2cccc(F)c2)C(=O)Nc2ccc(OC(F)(F)F)cc21 (stereo not drawn)	-27%	-2%[18.4 µM]
CC(C)(C)N1C(=O)c2ccccc2NC(=O)C1C(=O)NCCc1ccccc1F (stereo not drawn)	-5%	-2%
C/C(COc1ccccc1)=N\NC(=O)c1nnn(-c2nonc2N)c1-c1ccc(C)cc1	-24%	-14%
O=C(Nc1ccc2c(c1)OCCO2)C(c1ccccc1F)n1c(=O)c(-c2ccco2)nc2ccccc21 (stereo not drawn)	5%	8%
CC1=C(C(=O)N(C(C)C)C(C)C)CC(CC(=O)NCc2cccs2)C(=O)N1CCCN1CCCC1=O (stereo not drawn)	-11%	9%
COC(=O)C[C@H]1c2cc(C(F)(F)F)ccc2S(=O)(=O)N1Cc1ccccc1	-19%	4%
Clc1ccc2scc(CN3CCCC3)c2c1	-22%	-2%
CNS(=O)(=O)c1ccc(CNC[C@H]2O[C@@H](n3ccc(N)nc3=O)[C@H](O)[C@@H]2O)cc1	-9%	-6%
CCc1nc2c(OCc3ccc(OC(F)F)cc3)cccn2c1N(C)C(=O)c1ccc(OC)cc1	-9%	-7%
CCOC(=O)C1(C)CCCN(C(=O)c2ccc(-c3ccccc3)cc2)C1 (stereo not drawn)	-10%	-13%
COc1cccc(C(NC(C)=O)c2nc(-c3cccc(C(C)C)c3)cs2)c1 (stereo not drawn)	-12%	6%
O=C(CSc1nnc2ccc(-c3ccccn3)nn12)N1CCCC1	-11%	3%
CCCCCCCCC(c1nc2cc(C)c(C)cc2[nH]1)n1c(=O)c(-c2ccccc2Br)nc2ccccc21 (stereo not drawn)	-4%	9%
CN1C2CNC(=O)CC1C1CCC2C1 (stereo not drawn)	-15%	-7%

High-throughput results deposited in PubChem by National Center for Advancing Translational Sciences (NCATS).
